From PubChem
UCH37 inh – inhibitors of human UCH37 deubiquitinase, primary screen, biochemical, Ub-AMC cleavage, fluorescence; 330,000 tested, 0.33% active; purified proteasome/UCH37; Ubiquitin carboxyl-terminal hydrolase isozyme L5 (Homo sapiens), Q9Y5K5; AID 588478, 2011; inhibition, % (no concentration beside the values);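 active = mean of two replicates above 20%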;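 also: 0% = compound-free wells with enzyme and 100% = wells lacking proteasome; stock transfer was 100 nL into about 20 µL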
Target sequence (Q9Y5K5 whole entry, looked up): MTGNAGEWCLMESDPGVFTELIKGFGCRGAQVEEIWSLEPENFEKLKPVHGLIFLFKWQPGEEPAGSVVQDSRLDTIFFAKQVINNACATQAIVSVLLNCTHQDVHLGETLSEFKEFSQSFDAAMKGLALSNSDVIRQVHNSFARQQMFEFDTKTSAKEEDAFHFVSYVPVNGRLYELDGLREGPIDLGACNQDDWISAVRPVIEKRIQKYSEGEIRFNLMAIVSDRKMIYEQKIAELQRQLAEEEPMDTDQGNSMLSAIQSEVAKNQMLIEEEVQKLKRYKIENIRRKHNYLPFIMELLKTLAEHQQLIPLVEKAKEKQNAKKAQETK
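Material: Human UCH37 enzyme supplied as purified proteasome complex | Schedule: 30 min preincubation with enzyme, 25 min cleavage at room temperature | Detection: AMC fluorescence 355/460 nm | Measure: % inhibition of Ub-AMC cleavage fluorescence | Controls: Wells without proteasome as full block, compound-free enzyme plus substrate as uninhibited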
A1 inh – caspase 3/7 activation in MEF A1-2A-BIM cells, primary screen, A1 inhibitor project, cell-based, luminescence, HTS | AID 2462, 2010 | Caspase-Glo 3/7 luminescence, 3 h; percent of clofoctol response, vehicle zero | 330,000 tested, 0.066% active | caspase activation, % (test concentration not listed);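 active = over half of replicate activation scores above 10%, or exactly half above 10 with the replicate mean above 10; inconclusive = replicate mean below 10 yet half the replicates above 10; inactive = over half of replicates below 10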;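 also: wells of about 30 µL received 50 nL stock; many hits fall short of the cut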
LANA-H2B inh – blockers of LANA interaction with H2A/H2B – biochemical, FP readout, HTS, primary screen. cell-free LANA-H2A/H2B peptide, fluorescence polarization. AID 2629, 2010. Protein LANA1 (Human herpesvirus 8 type P (isolate GK18)), Q9QR71. 320,000 tested, 0.6% active. inhibition, % (test concentration not listed); in the data active = inhibition mostly above about 10%, no sharp cut-off; inactive = mostly below about 6.7%;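 also: stock transfer was 7.5 nL into about 10 µL; 0% = median of vehicle wells and 100% = median of positive control wells; one replicate is shown; the record names a cut of 25% in any replicate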
Beta2AR agonist – beta2AR agonists driving receptor internalization, primary screen, cell-based, FAP fluorogen, flow cytometry; 340,000 tested, 0.43% active; response, % (test concentration not listed); Am2.2-beta2AR cells; reference of the scale not given here; Beta-2 adrenergic receptor (Homo sapiens), P07550; AID 504454, 2011;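 active = response above a set limit, near 3 SD of response in nonfluorescent compounds, cut at about 42% in these data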;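 also: stock transfer was 100 nL into about 11 µL; a reference agonist was the positive control; negative values mostly stem from fluorescent compounds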
Target sequence (P07550 whole entry, looked up): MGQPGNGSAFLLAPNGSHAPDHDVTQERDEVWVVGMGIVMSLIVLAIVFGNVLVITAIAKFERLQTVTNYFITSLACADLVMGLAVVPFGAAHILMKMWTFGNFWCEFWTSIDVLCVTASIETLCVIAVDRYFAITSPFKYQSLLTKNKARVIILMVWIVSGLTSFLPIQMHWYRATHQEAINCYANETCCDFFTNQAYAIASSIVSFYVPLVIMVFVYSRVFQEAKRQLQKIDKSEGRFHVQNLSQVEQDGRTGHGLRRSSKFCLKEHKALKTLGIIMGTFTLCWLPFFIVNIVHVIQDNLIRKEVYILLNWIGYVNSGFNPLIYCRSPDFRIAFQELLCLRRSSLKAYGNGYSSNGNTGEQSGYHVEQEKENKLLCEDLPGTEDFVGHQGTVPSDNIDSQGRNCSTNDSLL
Calb FLC – C. albicans growth inhibition with fluconazole, primary screen, CaCi-2 strain, Alamar Blue fluorescence. C. albicans CaCi-2 (fluconazole-resistant clinical isolate) + fluconazole, 48 h. growth inhibition, % (no concentration beside the values). 300,000 tested, 0.57% active. AID 1979, 2009;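 active = most replicates above 75%; inconclusive = exactly half above 75%; inactive = most below 75%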;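 also: all wells also contain fluconazole at 8 µg/ml as a sub-toxic cotreatment; 0% = median of DMSO wells and 100% = median of geldanamycin control wells; wells of about 8 µL received 7.5 nL stock; the first replicate is given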
RanGTP-Impb inh – inhibitors of RanGTP-importin-beta interaction, primary screen, biochemical, FRET, CFP-Ran, YFP-importin-beta, homogeneous; cell-free CFP-Ran/YFP-importin-beta FRET ratio; inhibition, % (concentration not given with the values); 300,000 tested, 1.1% active;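 active = most replicates above 15%; inconclusive = exactly half above 15%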;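 also: 0% = DMSO wells and 100% = Ran loaded with GDP instead of GTP; wells of about 40 µL received 100 nL stock; the first replicate is given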
T cruzi inh – inhibitors of intracellular T. cruzi growth, primary screen, luminescence, NIH3T3 host cells; AID 1885, 2009; 300,000 tested, 1.4% active; inhibition, % (concentration not given with the values); T. cruzi beta-gal in NIH3T3, 90 h;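 active = mean inhibition across valid replicates above about 55%, limit read from the data; inconclusive = mean below that limit but half or more replicates reach it; inactive = mean below it, under half of replicates reach it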;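 also: signal also drops with host cell toxicity which is not excluded here; 0% = plate median of DMSO wells and 100% = zero luminescence signal; higher percent means less beta-gal luminescence so fewer parasites; stock transfer was 50 nL into about 50 µL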
Beta cell apopt – inhibitors of cytokine-induced beta cell apoptosis, primary screen, luminescence; AID 435005, 2010; INS-1E cytokine-induced death, ATP luminescence, 48 h; percent of positive-control rescue, neutral wells zero; protection from apoptosis, % (no concentration beside the values); 300,000 tested, 0.8% active;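 active = all replicates at 75% or more, or half of them and the mean; inconclusive = half reach 75% but not the mean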;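 also: 0% = cytokine-treated negative control wells and 100% = positive control rescue; higher means more ATP so stronger rescue from cytokine killing; wells of about 40 µL received 100 nL stock; the first replicate is given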
The depositor's hits bear a star; ? = inconclusive; . = no result given. Rows were taken by chance. Share with any hit: about 4.3%.

SMILES	UCH37 inh	A1 inh	LANA-H2B inh	Beta2AR agonist	Calb FLC	RanGTP-Impb inh	T cruzi inh	Beta cell apopt
O=S(=O)(Nc1cccc2cccnc12)c1ccccc1	.	-0.9	1.1	46*	0	-1.0	11	29
COc1ccc(C(C)=O)cc1COC(=O)c1ccc(OCc2c(C)noc2C)cc1	3.1	-0.9	1.9	12	0	-2.6	7	3
COc1cccc(-c2coc3c(C)c4oc(=O)c(CCC(=O)O)c(C)c4cc23)c1	-17	0.7	-3.5	14	?	-0.8	1	13
CCCCCOC(=O)NCC(O)c1ccccc1 (stereo unspecified)	0.7	-1.7	-3.9	7	-5	?	1	2
Cc1cccc(CSc2nnc([C@@H]3CCCN3)o2)c1	1.3	1.0	-3.0	-5	-13	7.2	-1	2
CN(C)c1ccc(C(=O)OCC(=O)NCCCc2ccccc2)cc1	-2.7	1.3	-0.9	-13	-14	-1.0	-6	-39
O=C1Nc2ccccc2C1Cc1ccc(OC(F)(F)F)cc1 (stereo unspecified)	0.1	-0.5	2.9	2	-1	1.3	-5	.
COc1ccc2oc(C(=O)Nc3nnc(C)s3)c(C)c2c1	-69	-8.2	-0.3	-1	.	.	.	4
Cc1ccccc1CC1(CO)CCCN(C(=O)c2ccccc2N(C)C)C1 (stereo unspecified)	1.5	0.0	-12	-2	3	.	18	-10
CC(C)(C)[C@H]1C=C(C(=O)O)O[C@@H](OCCCCO)C1	-0.5	0.6	0.2	0	10	2.8	-8	1
COc1cc(C(=O)NC(=S)Nc2ccc3c(c2)OCO3)cc(OC)c1OC	5.3	-0.8	0.4	-3	13	-1.9	3	5
O=C(CNC1CCCCCC1)c1cccs1	5.7	-0.9	-0.7	-5	-10	-0.2	-1	-4
CCN(C(=O)c1cccs1)c1nc(-c2ccc(OC)cc2)cs1	-0.3	-0.2	1.5	-2	-5	-5.7	30	-7
O=C1N=C(N2CCOCC2)S/C1=C\c1cccs1	.	2.4	0.2	-4	8	0.6	-13	-4
COc1cc(OC)cc(C(=O)Nc2sc3c(c2C(N)=O)CCC3)c1	-433	-2.8	-8.9	2	0	18*	14	2
O=C(Cc1ccccc1)Nc1c[nH]c(=O)[nH]c1=O	2.0	-1.1	3.6	-1	-3	3.4	-57	-8
O=S(=O)(NCC1CCCO1)c1ccc(S(=O)(=O)N(Cc2ccccn2)C2CC2)cc1 (stereo unspecified)	1.5	0.0	-3.3	-9	2	-1.4	-17	.
Cc1cc(N/N=C/c2ccccc2O)c2ccccc2n1	.	-0.3	-1.6	4	-15	-23	10	42
O=C(COC(=O)c1cc(Cl)ccc1[N+](=O)[O-])NCc1ccc(Cl)cc1Cl	4.3	-1.0	-0.5	-5	-1	1.8	-3	0
CCc1nnc(NS(=O)(=O)c2ccc(N=Cc3c(C)[nH]n(-c4ccc(Cl)cc4)c3=O)cc2)s1	3.8	-4.3	-3.0	4	6	-4.0	4	6
CCOC(=O)N1CCN(C(=S)NC(=O)/C=C/c2ccc(C)cc2)CC1	2.9	0.7	0.9	-4	-1	-5.0	-6	-2
C[C@H](CO)N1C[C@H](C)[C@H](CN(C)CC2CC2)Oc2ccc(NC(=O)CCN3CCOCC3)cc2C1=O	0.1	0.9	2.7	-3	.	.	.	-3
Cn1c(C(=O)O)c(CC(=O)NCc2cccnc2)c2ccccc21	2.3	0.5	0.0	4	2	3.7	-8	-1
O=C(CN1C(=O)CSc2ccc(S(=O)(=O)N3CCOCC3)cc21)NCCCN1CCCCC1	3.7	0.0	1.8	-6	-1	?	4	4
CCOc1ccc(S(=O)(=O)NC2CC2)cc1	5.4	-0.7	0.5	-4	-12	-2.3	-10	0

Entries of single compounds, quoted from the list.
C[C@H](CO)N1C[C@H](C)[C@H](CN(C)CC2CC2)Oc2ccc(NC(=O)CCN3CCOCC3)cc2C1=O is entered as UCH37 inh = 0.1; A1 inh = 0.9; LANA-H2B inh = 2.7; Beta2AR agonist = -3; Calb FLC = .; RanGTP-Impb inh = .; T cruzi inh = .; Beta cell apopt = -3
COc1cc(OC)cc(C(=O)Nc2sc3c(c2C(N)=O)CCC3)c1 is entered as UCH37 inh = -433; A1 inh = -2.8; LANA-H2B inh = -8.9; Beta2AR agonist = 2; Calb FLC = 0; RanGTP-Impb inh = 18*; T cruzi inh = 14; Beta cell apopt = 2

For convenience, part of the list above.
SMILES	UCH37 inh	A1 inh	LANA-H2B inh	Beta2AR agonist	Calb FLC	RanGTP-Impb inh	T cruzi inh	Beta cell apopt
O=S(=O)(Nc1cccc2cccnc12)c1ccccc1	.	-0.9	1.1	46*	0	-1.0	11	29
COc1ccc(C(C)=O)cc1COC(=O)c1ccc(OCc2c(C)noc2C)cc1	3.1	-0.9	1.9	12	0	-2.6	7	3
COc1cccc(-c2coc3c(C)c4oc(=O)c(CCC(=O)O)c(C)c4cc23)c1	-17	0.7	-3.5	14	?	-0.8	1	13

Next compounds
SMILES	UCH37 inh	A1 inh	LANA-H2B inh	Beta2AR agonist	Calb FLC	RanGTP-Impb inh	T cruzi inh	Beta cell apopt
CS(=O)(=O)N1CCN(C(=O)c2ccc(Br)s2)CC1	-1.7	0.2	0.1	2	-17	0.5	-20	1
CS(=O)c1ccccc1-c1nc(-c2cc(C(F)(F)F)cc(C(F)(F)F)c2)no1 (stereo unspecified)	.	-0.5	0.6	0	7	3.3	15	41
CN(C)c1ccc(/C=C2\N=C(c3ccc(Cl)c([N+](=O)[O-])c3)NC2=O)cc1	12	-0.1	3.0	.	3	7.6	0	25
COc1ccc(N2CCN(C(=O)C3CC(=O)N(c4ccc(C)cc4)C3)CC2)cc1 (stereo unspecified)	3.4	0.1	-2.5	3	-6	3.5	3	2
Cc1ccccc1NC(=O)c1c([N+](=O)[O-])cnn1C	1.4	0.6	5.4	2	2	5.4	-5	-4
COc1cc2c(cc1OC)C(C)N(CCc1ccc(Cl)cc1)CC2 (stereo unspecified)	-0.4	0.8	5.7	-4	-4	5.9	7	-5
O=C(CN1CCCCC1)N/N=C/c1cccc(Cl)c1	.	2.5	-0.2	0	3	-0.3	1	-3
O=C(NCC1CCCN1S(=O)(=O)c1cccs1)C(=O)Nc1ccc(F)cc1 (stereo unspecified)	5.8	-2.4	-5.4	-1	1	?	9	-2
N#Cc1c(-c2ccccc2Cl)cc(-c2ccccc2)nc1Br	3.8	0.6	2.0	-1	52	0.5	-12	1
CN(C)C(C(=O)NC1CCCCC1)c1ccc(Cl)cc1 (stereo unspecified)	-2.2	0.0	4.8	8	-5	1.8	-2	-2
COc1cccc(CCc2nnc(CCC(=O)NCCc3cccc(C)n3)o2)c1	-0.4	0.2	-1.4	11	-1	-0.7	-10	-8
O=c1cnn(-c2ccccc2)c(-c2ccccc2)c1	0.5	-0.1	-1.7	3	14	-0.3	-5	4
Cc1cccc(C(=O)NCC(=O)N2CCN(S(=O)(=O)c3cc(C)ccc3C)CC2)c1	-0.4	0.1	0.5	11	2	1.9	11	1
O=C(NCCC1=CCCCC1)C1CCN(C(=O)c2ccc(Br)cc2)CC1	3.4	-1.0	-6.6	6	-1	-3.4	-13	-12
CN(C)C(/C=C/Nc1cccc([N+](=O)[O-])c1)=C(C#N)C#N	.	-0.2	5.3	-5	-1	0.6	2	2
O=C(Nc1cc(S(=O)(=O)N2CCOCC2)ccc1OCC(F)(F)F)c1ccc(N2CCCC2=O)cc1	2.6	-0.1	0.6	-1	.	6.0	12	-2
CC(/C=N/Nc1nc(C)cc(C)n1)=C\c1ccc(C(C)C)cc1	.	0.2	-3.1	9	21	-1.9	-5	7
C[C@@H](C(=O)Nc1ccc2ccccc2c1)[C@@H]1C[C@@]1(C)[C@@H](NC(=O)c1cnccn1)c1ccccc1	1.5	0.8	5.7	-6	.	.	.	-3
Cc1ccc(C(=O)NCCNc2ncc(C(F)(F)F)cc2Cl)cc1[N+](=O)[O-]	1.4	-0.2	9.4	-10	-4	0.1	14	-2
O=S(=O)(c1ccc(-c2nc3ccccc3s2)cc1)N1CCCC1	-8.1	-5.9	-1.1	-6	-1	0.9	0	-2
Cc1ccc(F)cc1CNC(=O)C1CCC(=O)N(CCCN2CCCC2=O)C1 (stereo unspecified)	2.1	0.0	-13	-1	0	-2.6	-8	.
CC1=C(C(=O)OCC2CCCO2)C(c2ccc(Cl)c(Cl)c2)NC(=O)N1 (stereo unspecified)	4.9	0.0	6.2	-8	4	4.3	-2	3
CCN(CC)CC(=O)c1c(N)n(Cc2ccccc2)c(=O)n(C)c1=O	-1.8	0.5	1.0	5	-11	2.0	-25	-1
CC(=O)c1ccc(NC(=O)/C(Cl)=C/c2ccccc2)cc1	7.4	0.0	-2.0	-6	-7	5.8	-3	-3
O=C(COC(=O)COc1ccccc1Cl)Nc1ccccc1OC(F)F	.	-0.7	-3.7	-1	3	-1.9	-9	-6
COC(=O)c1ccccc1NC(=O)Cn1nnc(-c2ccc(OC)cc2)n1	0.2	0.2	-3.3	-12	0	3.1	15	0
CCCC(=O)NC(=S)Nc1cccc(NC(=O)c2ccc(Cl)cc2Cl)c1	4.5	0.3	1.3	-6	6	-2.8	1	-6
N#Cc1nc(-c2ccc(F)cc2)oc1N1CCCC1	-126	-0.6	-6.0	-4	9	-0.8	12	2
O=C(NCC1CCCO1)C12CN(Cc3ccccc3)CC1C(c1cccc([N+](=O)[O-])c1)=NO2 (stereo unspecified)	-0.4	0.1	-3.1	-2	2	0.0	-2	4
NC1=NC(=Nc2ccc(Cl)cc2)c2ccccc21	5.4	-3.4	5.0	-4	12	4.0	-10	-7
CC(C)c1ccc(Nc2nc(CC(=O)O)cs2)cc1	5.2	-3.4	1.3	6	-17	3.2	-5	-2
CN1/C(=C\C(=O)COC(=O)Cn2nnc(-c3ccccc3)n2)C(C)(C)c2ccccc21	-1.5	0.3	-4.0	-70	-1	-7.4	18	72
CCCC1=Nc2cc(C(=O)N3CCN(c4ccccn4)CC3)ccc2Sc2ccc(C)cc21	3.7	-0.1	2.4	2	11	-1.8	48	15
Cc1cc(C)c2c(N)c(-c3nc4ccccc4[nH]3)sc2n1	-2.3	0.1	-2.1	-18	-17	21*	-5	7
O=C(Nc1ccc(Cl)cc1)C1CCCC1	2.0	-0.7	5.5	-7	-3	-2.2	-4	.
Cn1nnnc1SCCNCc1cc(Cl)ccc1OCc1ccccc1	2.8	0.4	0.2	5	4	4.5	1	33
COc1ccccc1C(=O)N1CCC(C(=O)c2ccc(F)cc2)CC1	2.6	-0.4	3.3	-11	4	-1.5	-17	-1
CCOc1ccc2c(c1)c1nnc(SCC(=O)N3CCCCC3C)nc1n2C (stereo unspecified)	8.0	0.6	-2.6	-5	3	-1.9	18	11
